Source: PubChem BioAssay
eIF4H inh – inhibitors of RNA binding by human eIF4H; Q15056; hit rate 0.94% among 290,000; AID 2012; eIF4H fluorescence polarization binding assay; inhibition, % at 35 µM;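 active means 50% or more with normal probe brightness, or confirmed in later tests; about a fifth of its hits are not listed in these tables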;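 further: calls also rest on retests at 20 µM and on dose response follow-up; 0% = protein and probe with vehicle and 100% = probe without protein; strong numbers were not always called active; many hits fall short of the cut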
PABP polyA inh – blocks human PABP binding to poly(A) RNA; fluorescence polarization; inhibition, % at 35 µM; hit rate 1% among 290,000; P11940;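 active means 50% or more with normal probe brightness, or confirmed in later tests; about a fifth of its hits are not listed in these tables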;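 further: calls also rest on retests at 20 µM and on dose response follow-up; controls were probe without protein and protein plus probe with vehicle; some compounds called inactive have numbers as strong as hits; many hits fall short of the cut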
Target sequence (P11940 whole entry, looked up): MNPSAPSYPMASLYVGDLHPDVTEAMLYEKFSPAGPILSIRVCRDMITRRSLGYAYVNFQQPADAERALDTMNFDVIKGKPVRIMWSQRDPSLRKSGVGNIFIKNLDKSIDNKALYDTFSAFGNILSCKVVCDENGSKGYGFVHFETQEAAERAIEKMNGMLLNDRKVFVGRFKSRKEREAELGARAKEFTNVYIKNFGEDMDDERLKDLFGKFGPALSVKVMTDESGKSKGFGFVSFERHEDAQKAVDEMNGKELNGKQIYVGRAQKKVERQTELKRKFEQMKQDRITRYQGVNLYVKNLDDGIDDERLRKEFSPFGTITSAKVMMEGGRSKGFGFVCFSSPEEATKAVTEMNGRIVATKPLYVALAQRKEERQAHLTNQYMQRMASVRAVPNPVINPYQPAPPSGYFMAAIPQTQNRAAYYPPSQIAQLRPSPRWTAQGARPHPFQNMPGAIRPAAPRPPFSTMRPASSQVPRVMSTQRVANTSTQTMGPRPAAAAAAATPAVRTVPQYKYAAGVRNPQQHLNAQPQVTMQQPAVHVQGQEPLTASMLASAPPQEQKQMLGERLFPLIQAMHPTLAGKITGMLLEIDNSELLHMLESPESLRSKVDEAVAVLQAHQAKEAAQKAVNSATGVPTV
Env fusion inh – blocks HIV Env-driven cell-cell fusion; HeLa-JRFL Env/CEM21 cell fusion, luciferase; inhibition, % at 12.3 µM; hit rate 1.1% among 360,000; AID 651610;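 active means mean replicate inhibition score of at least 50 and every replicate individually at or above 50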;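 further: 0% = plate neutral controls and 100% = maraviroc near 300 nM; one replicate is shown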
Rce1 inh – inhibitors of yeast Ras-converting enzyme; AID 2563; Q03530; hit rate 0.27% among 290,000; yeast membranes, quenched prenylated peptide cleavage fluorescence; calls only;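 active means fall in fluorescence gain of 50% or more versus controls, with final raw signal at or below 3038400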;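 further: plate controls were neutral control wells for no effect and wells lacking membranes for full effect; tested at 10 µM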
Target sequence (Q03530 whole entry, looked up): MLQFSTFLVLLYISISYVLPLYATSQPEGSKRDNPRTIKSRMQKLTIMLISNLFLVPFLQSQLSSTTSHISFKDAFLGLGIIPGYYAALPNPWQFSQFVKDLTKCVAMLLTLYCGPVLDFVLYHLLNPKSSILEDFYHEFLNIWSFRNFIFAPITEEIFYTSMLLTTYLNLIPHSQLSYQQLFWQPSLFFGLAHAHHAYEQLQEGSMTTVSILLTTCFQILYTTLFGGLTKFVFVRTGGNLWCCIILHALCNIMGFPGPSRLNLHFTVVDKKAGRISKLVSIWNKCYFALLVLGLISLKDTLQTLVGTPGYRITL
CSC inhib – blocks cancer stem cells; inhibition, % at 7.5 µM; cancer stem cell-like cells viability, luminescence; hit rate 1.1% among 300,000; AID 2717;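 active means mean at 75% or more and at least half the replicates too; tested in HMLE shEcad cells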;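 further: 0% = median of negative and 100% = median of positive control wells; the first replicate is given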
MT1-MMP act inh – MT1-MMP (human) activation inhibition. P50281. HT1080 RFP-PRO-GFP cells, GFP/RFP ratio fluorescence, overnight; percent of plate control window, DMSO zero. GFP/RFP ratio change, % at 20 µM. hit rate 0.061% among 360,000. AID 651647;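 active means GFP/RFP ratio change of at least 30% with cell ATP level not reduced by more than half and red fluorescence within 50% of control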; further: strong numbers were not always called active
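Test system: HT1080 RFP-PRO-GFP cells; Benchmarks: DMSO and RFP-L50D-GFP cell wells; Timing: cells overnight before dosing, compound overnight, 37 °C, 5% CO2; Compound: one 20 µM compound dose with 1% DMSO; Read-out: GFP/RFP fluorescence ratio.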
Yeast UUG start – modulators of start codon recognition fidelity in yeast | activity score, % at 18.7 µM | S. cerevisiae UUG-firefly luciferase reporter, luminescence/redox ratio | hit rate 0.13% among 350,000 | AID 602363;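 active means replicate mean at a twofold rise or more, about +100% in these data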;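 further: firefly luciferase made from a UUG start codon reports start codon fidelity; reporter light over untreated wells divided by growth signal over untreated wells; some hits fall short of that in this replicate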
eIF4H inh retest – second read-out of eIF4H inh, no call of its own (marks repeat the call); inhibition, %; compound at 20 µM; confirmation average;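 mean of two retest wells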
PABP polyA inh retest – second read-out of PABP polyA inh, no call of its own (marks repeat the call); inhibition, %; compound at 20 µM; confirmation repeats;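 mean of two retest wells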
MT1-MMP act inh RFP – also measured in MT1-MMP act inh; calls as there; RFP signal change, %; measured here: RFP expression control read;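 0 = vehicle wells; hits needed this value within 50% of zero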
Numbers without * were called inactive; i = inactive; · = no result given; + = active, no number; & = joins results of further samples; [ ] = dose if it differs, or a comment. The list is partial; count on the stated rates, not on these rows.

SMILES	eIF4H inh	PABP polyA inh	Env fusion inh	Rce1 inh	CSC inhib	MT1-MMP act inh	MT1-MMP act inh RFP	Yeast UUG start	others
Clc1ccc(N2CCN(Cc3ccco3)CC2)cc1	8	4	0	i	7	0	3	-7
Cc1cccc(-n2ncc3c(NCc4ccc5c(c4)OCO5)ncnc32)c1	-11	25	-33	i	47	0	0	-22
COCc1[nH]nc2c1C1(CCSCC1)C(C#N)=C(N)O2	-3	-2	-19	i	-1	5	3	-19
O=C1C=C(c2ccc(C(=O)O)cc2)C[C@@H](c2ccc3c(c2)OCO3)C1	·	·	-12	·	9	1	2	1
Cc1ccccc1OCC(=O)NCCN(C)C	-6	5	·	i	-2	3	3	-19
O=C(Cn1nc(C(=O)O)c2ccccc2c1=O)c1c[nH]c2ccccc12	-14	7	10	i	-1	-7	-3	-13
O=C(c1ccccc1)c1sc(Nc2ccc3c(c2)OCO3)nc1-c1ccccc1	·	·	-1	·	·	-6	-10	-7
COc1ccc(CCN=Cc2ccc(O)cc2)cc1OC	57	24	-11	i	-22	3	6	-29	eIF4H inh retest=-2;PABP polyA inh retest=6
Cc1nnc(N2CCCC(C(=O)NCc3ccccc3F)C2)c2nn(-c3ccccc3)c(C)c12 (centres undefined)	-2	-13	20	i	-31	-9	-4	-30
O=C(Cc1ccc(Br)cc1)Nc1cccc(S(=O)(=O)N2CCCCC2)c1	·	·	-10	·	·	9	-10	-9
Cc1ccc([N+](=O)[O-])c(OCCN2CCC(Cc3ccccc3)CC2)c1	7	-1	6	i	50	4	-3	·
CCN(C1CCS(=O)(=O)C1)S(=O)(=O)c1cccc([N+](=O)[O-])c1 (centres undefined)	-5	-7	6	i	7	3	-1	·
O=C(NCCCCO)C(F)(F)C(F)(F)C(F)(F)C(=O)NCCCCO	10	-5	4	i	·	-1	-10	-5
COc1ccc(-c2cc(C)no2)cc1S(=O)(=O)Nc1ccc(NC(C)=O)cc1	18	3	-2	i	-11	-2	4	-9
COc1ccc(S(=O)(=O)N(CCC(=O)O)Cc2ccccc2)cc1	5	-4	-1	i	-11	4	2	-10
CCCC(=O)NC(c1ccc(OCC)cc1)c1ccc(OC)c(OC)c1 (centres undefined)	-4	3	-14	i	-12	7	4	-9
Cc1nn(Cc2ccccc2)c(Cl)c1/C=N/NC(=O)CNc1cccc(C(F)(F)F)c1	-11	16	18	i	7	-6	-14	18
COCCN(C(=O)CCC(=O)Nc1ccccn1)C(C(=O)NC1CCCC1)c1ccc(OC)cc1 (centres undefined)	-15	-11	·	i	-7	5	6	2
CCN(CC)S(=O)(=O)c1cccc(C(=O)N2CCCc3ccccc32)c1	-13	10	-29	i	-17	2	-4	-12
CC1(C)C(CC(=O)O)CC1C(=O)O (centres undefined)	·	·	-31	·	·	-3	4	-4
Cc1ccc(OC(=O)Nc2ccccc2)cc1	1	-9	-25	i	-8	1	0	-25
CC(NC(=O)c1ccco1)C(=O)N1CCN(C(c2ccccc2)c2ccccc2)CC1 (centres undefined)	-6	-3	9	i	-19	-4	-4	13
N/C(=N\OC(=O)c1cc(Br)ccc1Cl)c1cccnc1	-22	-30	-4	i	-2	-4	4	·
Cc1c(N=Cc2ccncc2)c(=O)n(-c2ccccc2)n1C	-5	0	·	i	-8	10	1	2
COc1ccc(CNS(=O)(=O)c2ccc(F)cc2Br)cc1	·	·	-17	·	·	1	1	-25
COc1cc2c(cc1NC(=O)CSCC(=O)O)oc1ccccc12	-2	10	·	i	3	2	2	-1
Cc1ccc(-c2csc(=S)[nH]2)cc1	1	-13	-42	i	·	3	1	·
CN(C(=O)c1ccc(N2CCCCC2)c([N+](=O)[O-])c1)C1CCS(=O)(=O)C1 (centres undefined)	·	·	-4	·	17	3	-1	-14
CC1CCCCN1CCNC(=O)C1CC(=O)N(c2ccc(F)c(Cl)c2)C1 (centres undefined)	2	-3	·	i	-7	4	4	1
CCN(CC)S(=O)(=O)c1ccc(C(=O)NCc2ccc3c(c2)OCO3)cc1	-2	2	4	i	-3	7	5	·
COc1ccc(S(=O)(=O)Nc2cccc3c2O[C@H](CN(C)Cc2ccccc2)[C@@H](C)CN([C@H](C)CO)C3=O)cc1	·	·	-9[16.7 µM]	·	·	3	1	7&4
O=C(N/N=C\c1ccc2c(c1)OCO2)c1ccc(Cn2cc(Br)c([N+](=O)[O-])n2)o1	2	7	3	i	84*	3	4	-12
Cc1cccc(CN2CCC(C(N)=O)CC2)c1	2	-6	·	i	-9	-1	3	-13
CC(C)(C)NC(=O)Cc1ccc(Cl)c(Cl)c1	-14	5	3	i	10	7	0	·
O=C(c1ccc2ccccc2n1)N1CCN(Cc2c(F)cccc2Cl)CC1	1	5	0	i	-8	0	-1	-6
C=C1C(=O)[C@]23C[C@H]1CC[C@H]2[C@]1(C)[C@@H](OC(C)=O)CC[C@@](C)(C(=O)O)[C@H]1C[C@@H]3O	·	·	1	·	·	-5	-19	-12
O=C(Cc1ccc(F)cc1)Nc1ccc(F)c([N+](=O)[O-])c1	-8	5	-39	i	-6	10	3	-1
COc1ccc(-c2cc(=O)c3ccccc3[nH]2)cc1	-1	12	-5	i	1	3	-2	-13
CCCOC(=O)c1c(NC(=O)CSc2nc(-c3ccco3)cc(C(F)(F)F)n2)sc(C(=O)OC)c1C	-10	-3	29	i	16	-4	-6	-13
Cc1cccc(NC(=O)c2cccc(C(=O)Nc3cccc(C)c3)n2)c1	·	·	-32	i	10	-2	-1	·
CCOC(=O)c1cnc2ccc(OCC)cc2c1NCc1cccnc1	-4	2	·	i	-10	3	-2	·
O=c1c(-c2ccccc2)coc2c(CN3CCCC3)c(O)ccc12	-5	-10	-14	+	-16	3	0	-7
Cc1ccc(S(=O)(=O)N2CCCC2C(=O)O)cc1 (centres undefined)	1	-12	·	i	·	2	3	-12
COc1ccc(OCC(O)Cn2c(=N)n(CCN3CCCCC3)c3ccccc32)cc1 (centres undefined)	-6	3	-34	·	-9	6	-3	-18
O=C(CC1C(=O)NCCN1C/C=C/c1ccccc1)NCCc1cnccn1 (centres undefined)	38	10	-19	i	-2	-1	5	-10
COc1cccc(/C=C2/CN(C)CC3=C2OC(N)=C(C#N)C3c2cccc(OC)c2)c1 (centres undefined)	75*	78*	·	·	6	-3	30	-3
O=C(CC1C=Cc2ccccc2N1C(=O)c1ccccc1)c1ccccc1 (centres undefined)	11	-5	-5	i	11	0	-11	-3
COc1ccc(NC(=O)CSc2nncs2)cc1OC	3	14	-27	i	0	-4	-3	·
O=C(CCOc1ccccc1)N1CCCC(Nc2ccccc2)C1 (centres undefined)	·	·	6	·	·	3	-3	-8
COc1cccc(C(=O)N2CCC(n3nccc3NC(=O)CCOc3ccccc3)CC2)c1	-9	-2	-15	i	7	1	3	-2
O=C(CCC(=O)Nc1ccc(F)cc1)N/N=C/c1ccc(F)cc1	-4	-1	-6	i	13	-1	1	-14
CC(C)(C)n1nnnc1C(c1ccccc1)N1CCc2ccccc2C1 (centres undefined)	6	21	·	i	·	1	2	6
O=C(CN1C(=O)S/C(=C\c2cccc(Cl)c2)C1=O)NCCCn1ccnc1	-4	-4	-9	i	30	-2	-2	-14
Cc1cc(-n2ccc(=O)[nH]c2=O)nc(-c2ccccc2)n1	7	9	·	i	-12	10	7	-11
O=C(COC(=O)c1cc(=O)[nH]c2ccccc12)NCc1cccs1	2	12	-3	i	0	4	5	·
CCn1c(C)nc2cc(C(=O)N/N=C/c3cccc(OC)c3O)ccc21	-5	2	0	i	109*	-3	-8	·
CN(C)C(=O)CSc1nc2ccccc2c(=O)[nH]1	10	6	·	i	·	-5	-3	1
O=C(Nc1cccnc1)C1(F)C(F)(F)C(F)(F)C(F)(F)C(F)(F)C1(F)F	4	16	·	i	-9	0	7	·
Cc1ccccc1CN1CCN(C(=O)c2cccc(F)c2)CC1	-9	2	13	i	·	-2	1	18
C[C@]12C(=O)N(c3ccc(Br)cc3)C(=O)N1[C@@H]1c3ccccc3OC[C@@H]1[C@H]2c1ccccc1	-6	-7	28	i	4	-5	-5	-13

Seven compounds drawn at random from those above:
SMILES	eIF4H inh	PABP polyA inh	Env fusion inh	Rce1 inh	CSC inhib	MT1-MMP act inh	MT1-MMP act inh RFP	Yeast UUG start	others
Cc1cc(-n2ccc(=O)[nH]c2=O)nc(-c2ccccc2)n1	7	9	·	i	-12	10	7	-11
COc1cccc(/C=C2/CN(C)CC3=C2OC(N)=C(C#N)C3c2cccc(OC)c2)c1 (centres undefined)	75*	78*	·	·	6	-3	30	-3
O=c1c(-c2ccccc2)coc2c(CN3CCCC3)c(O)ccc12	-5	-10	-14	+	-16	3	0	-7
Cc1ccc(S(=O)(=O)N2CCCC2C(=O)O)cc1 (centres undefined)	1	-12	·	i	·	2	3	-12
CCn1c(C)nc2cc(C(=O)N/N=C/c3cccc(OC)c3O)ccc21	-5	2	0	i	109*	-3	-8	·
CN(C)C(=O)CSc1nc2ccccc2c(=O)[nH]1	10	6	·	i	·	-5	-3	1
C[C@]12C(=O)N(c3ccc(Br)cc3)C(=O)N1[C@@H]1c3ccccc3OC[C@@H]1[C@H]2c1ccccc1	-6	-7	28	i	4	-5	-5	-13

Other results
SMILES	eIF4H inh	PABP polyA inh	Env fusion inh	Rce1 inh	CSC inhib	MT1-MMP act inh	MT1-MMP act inh RFP	Yeast UUG start	others
O=C1c2ccccc2C(=O)N1c1ccccc1S(=O)C(F)(F)F (centres undefined)	3	3	·	i	·	-2	-3	-16
Cc1cc(C(=O)NC2CCCc3c2cnn3-c2cccc(C)c2C)n(C)n1 (centres undefined)	-1	-15	36	i	18	6	-30	-13
O=C(CSc1nnc(-c2ccco2)n1CC1CCCO1)c1ccccc1 (centres undefined)	-6	3	·	i	8	0	5	-6
COc1ccccc1CN1Cc2cccc3c2[C@@H](CC1=O)[C@H](O)[C@H](O)C3	·	·	-18	·	-12	-3	0	3
CCCC1=[N+](CC(=O)c2ccc(Br)cc2)CCn2cccc21	35	18	-14	i	1	-82	9	-12
CCOc1ccc(OCC)c(NC(=O)CSc2nc3ccccc3c(=O)n2C)c1	-4	-1	91*	i	15	6	-21	-1
O=S(=O)(c1cccc2cccc(Cl)c12)N1CCCC1	0	0	3	i	-10	3	-1	-1
COc1ccccc1C(C)NCC(=O)Nc1ccccc1C(F)(F)F (centres undefined)	-3	-5	24	i	-6	-1	1	·
CC1(Cc2cc(Cl)ccc2C(F)(F)F)C(=O)Nc2cc(-c3ccccc3Cl)ccc21 (centres undefined)	·	·	-17	·	·	0	-1	-8
Cc1ccc(CNS(=O)(=O)c2cc(F)ccc2CN2C(=O)c3cccnc3C2=O)o1	-7	0	3	i	-6	-1	3	-18
CC(=O)Cc1nsc(NC(=O)c2ccc(COc3ccc(C)cc3)o2)n1	-5	6	·	i	12	-2	1	-7
CCn1ccnc1CNC(=O)CC1C(=O)NCCN1CCCc1ccccc1 (centres undefined)	9	10	0	i	-12	-4	3	-22
C=CCNC(=O)C(C)Sc1ccc(Cl)cc1 (centres undefined)	8	-6	·	i	-9	2	2	-16
CC1CCCN(CCCNC(=O)C2CC(=O)N(CCc3ccccc3)C2)C1 (centres undefined)	·	·	5	i	-3	3	7	9
N#Cc1ncc(C(F)(F)F)cc1Sc1ccc(N)cc1	5	-15	·	i	15	-4	1	·
CCn1c(=O)c([N+](=O)[O-])c(NCCN(C)C)c2ccccc21	6	1	7	i	1	8	8	·
COc1cccc2sc(N)nc12	·	·	·	·	-11	1	2	-4
CC(=O)N/C(=C/c1ccc2c(c1)OCO2)C(=O)NCC(=O)O	-16	-2	-21	i	4	6	4	-19
